Ecoli growth: blocks Escherichia coli growth. AID 1053175. OD600 absorbance (concentration not given with the values). OD600, 23 h; stronger effect = lower value. 330,000 compounds, 0.21% hits;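 active = OD600 absorbance below the run mean of sample wells minus 3.6 SD, in any replicate, cut at about 0.56 in these data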;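 note: stock transfer was 300 nL into about 60 µL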
ALR H2O2 inh: human ALR oxidase inhibition via reduced H2O2; 290,000 compounds, 3.8% hits; purified ALR, DTT oxidation, H2O2 HRP-luminol luminescence; P55789; inhibition, % (no concentration beside the values);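 active = mean and each replicate at 75% or more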;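 note: stock transfer was 7.5 nL into about 7.5 µL; 0% = neutral wells and 100% = wells with inactivated enzyme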
Target sequence (P55789 whole entry, looked up): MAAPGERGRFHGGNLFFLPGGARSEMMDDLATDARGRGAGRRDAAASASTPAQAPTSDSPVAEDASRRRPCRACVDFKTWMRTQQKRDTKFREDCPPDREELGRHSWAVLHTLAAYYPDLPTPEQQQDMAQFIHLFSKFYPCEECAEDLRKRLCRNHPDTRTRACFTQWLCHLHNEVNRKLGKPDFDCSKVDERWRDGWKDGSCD
rRNA inh HTS: selective bacterial rRNA inhibition in E. coli; E. coli WT GFP vs humanized-ribosome RFP mutants, fluorescence, 24 h; stronger effect = lower value; DMSO median 0, no signal -100; GFP signal change (wild-type ribosome), % (concentration not given with the values); 350,000 compounds, 1.6% hits; AID 720706;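 active = significant combined selectivity score with lowered wild-type GFP, culture density cut under 30%, mutant RFP and density less affected; inactive = any of these conditions unmet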; note: one replicate is shown; some compounds called inactive have numbers as strong as hits
UCH37 inh: blocks the human deubiquitinase UCH37; Q9Y5K5; purified proteasome/UCH37, Ub-AMC cleavage fluorescence; inhibition, % (concentration not given with the values); 330,000 compounds, 0.33% hits; AID 588478;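 active = mean of two replicates above 20%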;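 note: 0% = compound-free wells with enzyme and 100% = wells lacking proteasome; stock transfer was 100 nL into about 20 µL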
Target sequence (Q9Y5K5 whole entry, looked up): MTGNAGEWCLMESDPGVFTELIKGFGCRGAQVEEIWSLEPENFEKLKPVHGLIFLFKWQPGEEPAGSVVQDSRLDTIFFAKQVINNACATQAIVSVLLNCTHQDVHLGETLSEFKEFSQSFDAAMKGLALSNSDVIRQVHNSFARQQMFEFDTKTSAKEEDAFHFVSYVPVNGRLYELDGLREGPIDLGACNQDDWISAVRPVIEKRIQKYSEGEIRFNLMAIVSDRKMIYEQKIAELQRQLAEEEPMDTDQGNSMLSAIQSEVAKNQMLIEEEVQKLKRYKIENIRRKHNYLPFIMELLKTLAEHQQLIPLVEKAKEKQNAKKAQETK
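system = Proteasome-associated human UCH37 deubiquitinase | amount = 0.15 nM proteasome as dispensed | medium = pH 7.4 Tris-HCl (50 mM) with ovalbumin, ATP-MgCl2, DTT | incubation = 30 min preincubation with enzyme, 25 min cleavage at room temperature | detection = AMC fluorescence 355/460 nm | read-out basis = percent inhibition | controls = no-proteasome and no-compound wells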
HNF4A DNA FP: change in binding of human HNF4 alpha to DNA; HNF4a-FITC DNA binding, fluorescence polarization, 1 h; activity change, % at 10 µM; 360,000 compounds, 0.3% hits; AID 1224865; in the data active = activity change above about 30%, passing the limit was not always enough;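 note: controls were the assay level and a saturating level of protein; the project sought stronger binding though the title names inhibitors; some compounds called inactive have numbers as strong as hits; positive values seem to mean higher polarization but the record does not say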
FGF22 binding: binders of recombinant human FGF22 by thermal shift | Q9HCT0 | SYPRO orange fluorescence; percent of sucrose octasulfate shift, DMSO zero | calls only at 9.99 µM | 340,000 compounds, 1.5% hits | AID 651658;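 active = melting point raised past a set limit in the mean and every replicate; three in four hits are not shown here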
Target sequence (Q9HCT0 whole entry, looked up): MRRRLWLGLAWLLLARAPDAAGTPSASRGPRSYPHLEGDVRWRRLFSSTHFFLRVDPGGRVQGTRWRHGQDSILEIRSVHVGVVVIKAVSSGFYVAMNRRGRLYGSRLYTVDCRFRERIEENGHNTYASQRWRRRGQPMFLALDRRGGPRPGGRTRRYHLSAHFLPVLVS
Beta2AR agonist: activates human beta-2 adrenergic receptor causing internalization; Am2.2-beta2AR cells, FAP receptor internalization, flow cytometry; reference of the scale not given here; response, % (concentration not given with the values); P07550; 340,000 compounds, 0.43% hits;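 active = response above a set limit, near 3 SD of response in nonfluorescent compounds, cut at about 42% in these data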;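 note: stock transfer was 100 nL into about 11 µL; a reference agonist was the positive control; negative values mostly stem from fluorescent compounds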
rRNA inh HTS OD600: also measured in rRNA inh HTS; calls as there; OD600 change, %; measured here: OD600 growth;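 optical density of the mix in the first replicate; 0 = DMSO median and -100 = no signal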
rRNA inh HTS RFP: recorded beside rRNA inh HTS, whose call it bears; RFP signal change, %; measured here: RFP humanized mutant strains;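 first replicate; 0 = DMSO median and -100 = no signal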
The depositor's hits bear a star; i = inactive; x = not tested or not shown.

Ecoli growth,ALR H2O2 inh,rRNA inh HTS,rRNA inh HTS OD600,rRNA inh HTS RFP,UCH37 inh,HNF4A DNA FP,FGF22 binding,Beta2AR agonist,compound
0.69,37,-2,-5,-0.8,-0.3,-0.2,x,1,Cc1ccc2[nH]c(C)c(CC(=O)NCc3ccccc3)c2c1
0.64,1,-16,-12,5.7,5.5,-3.5,i,4,Cc1cccc(C)c1NC(=O)C(=O)NCCc1c[nH]c2ccccc12
0.66,21,x,x,x,21*,1.2,x,-1,Cc1[nH]n(-c2ccccc2)c(=O)c1N=Nc1nccs1
0.74,-8,x,x,x,3.1,-0.4,i,-6,Cc1ccc(C(=O)OC(C(=O)Nc2ccc(Cl)cc2C(F)(F)F)c2ccccc2)cc1 (stereo not drawn)
0.7,-3,x,x,x,0.4,1.1,x,3,COc1cccc(CNC(=O)c2ccc(S(=O)(=O)N3CCCC3)cc2)c1
0.73,0,x,x,x,1.3,0.7,x,0,CC1(C)Cc2c(sc3nc(-c4ccccc4)n(N)c(=O)c23)CO1
x,x,7,-19,11,x,-2.3,i,x,CC1(C(=O)Nc2cnc3ccccc3c2)CCN1C(=O)CC(c1ccccc1)c1ccccc1 (stereo not drawn)
0.68,-4,-6,-17,1.6,4.5,2.6,i,12,Cc1noc(C)c1CSCC(=O)NCCN1C(=O)S/C(=C\c2ccccc2F)C1=O
0.65,-66,x,x,x,2.1,-1.3,x,24,CC(C)C(=O)NC(NC(=S)Nc1cccc2cccnc12)C(Cl)(Cl)Cl (stereo not drawn)
x,1,9,5,-1.5,x,1.5,i,-9,CN(C)C=Nc1ccc(Cl)c(Cl)c1
x,1,-7,-8,5.6,x,1.0,i,2,CSC(=S)N/N=C(\C)c1ccc(Br)cc1
0.65,0,5,-4,0.1,0.0,3.1,i,7,Cc1cc(C)cc(NC(=O)COC(=O)CN=C2NS(=O)(=O)c3ccccc32)c1
0.68,x,-16,-12,-0.5,2.5,-1.4,i,-3,OC(c1cccc(Cl)c1)c1nccc2ccccc12 (stereo not drawn)
0.69,-4,x,x,x,2.4,-2.3,x,1,O=C(COc1ccccc1)NC1CCN(Cc2ccccc2)CC1
x,x,3,-5,-1.8,x,-0.3,i,x,CNc1ccc(-c2cccc(CO)c2)cn1
x,66,-28*,-16*,-0.9*,x,2.3,i,-3,COc1ccc(O)c(/C=N/NC(=S)Nc2cccnc2)c1
x,x,0,0,9.7,x,-3.9,i,x,O=C(OCc1ccccc1)N1CCN(C(c2ccnc3ccccc23)c2nnnn2-c2ccc3c(c2)OCCO3)CC1 (stereo not drawn)
0.69,-21,x,x,x,3.6,11,x,7,CCc1ccc(C(=O)COC(=O)c2cccc(N3C(=O)c4c(C)nc5ccccc5c4C3=O)c2)cc1
0.64,x,x,x,x,-0.6,0.5,x,-17,CCN(CCCNC(=O)CCNC(=O)Cn1ccc2ccccc2c1=O)c1ccccc1
0.66,-3,15,10,-4.0,4.1,-3.9,i,13,CC1CC(C)CN(CCCNC(=O)C2CCC(=O)N2C2CCCC2)C1 (stereo not drawn)
x,-2,1,2,-1.3,x,1.4,i,-1,O=C(Cc1ccc(Cl)cc1)N/N=C/c1ccncc1
0.69,-2,x,x,x,0.5,0.4,x,5,Cc1[nH]c2ccccc2c1C(=O)CSc1nncn1C
0.69,-18,5,5,-2.0,1.7,4.5,i,-2,O=[N+]([O-])c1ccccc1CSc1nnc2ccccn12
0.68,-3,7,11,-1.3,2.3,1.6,i,-4,COc1cc(C)nc(N2CCC(C(=O)NCC3CCCO3)CC2)n1 (stereo not drawn)
0.65,-1,x,x,x,2.2,1.6,x,8,Cc1ccccc1Cn1nc(C)c(NC(=O)C2(C)CC2(Cl)Cl)c1C (stereo not drawn)
0.72,-6,4,0,0.2,-0.3,18,i,2,CCOc1ccc(OCC)c(NC(=O)C2CCCN(S(=O)(=O)c3c(C)n[nH]c3C)C2)c1 (stereo not drawn)
0.67,-3,x,x,x,0.4,5.8,x,-6,Cc1c(NC(=O)CSc2nc3ccccc3[nH]2)c(=O)n(-c2ccccc2)n1C
0.68,3,-35,-48,-5.1,-0.6,-3.8,i,-7,FC(F)(F)c1cccc(N2CCN(C(=S)NCC3CCCO3)CC2)c1 (stereo not drawn)
x,x,-52,-75,-17,x,-17,i,-5,CN(C)CCNC(=O)c1cccc2nc3c(ccc4ccccc43)nc12
0.68,1,-13,-12,0.1,2.5,0.2,i,5,CC(NC(=O)COC(=O)C1=COCCO1)C12CC3CC(CC(C3)C1)C2 (stereo not drawn)
x,x,2,6,4.5,x,0.5,i,x,O=C(NCc1nnnn1-c1ccc(Cl)cc1)C1CC(=O)N(c2ccc(F)cc2)C1 (stereo not drawn)
0.72,-8,x,x,x,0.5,1.2,x,-6,Cc1nc(N2CCN(Cc3ccccc3)CC2)nc2c1C(=O)CC(c1ccco1)C2 (stereo not drawn)
0.67,7,5,4,-2.5,2.8,-0.7,i,-20,CCCn1c(SCC(=O)NC(C)C)nc2sc3c(c2c1=O)CCC3
0.63,90*,3,13,-0.1,86*,-60,i,-5,C=CCOc1ccc(C=NNc2ccc(S(=O)(=O)Nc3ccccc3C(=O)O)cc2[N+](=O)[O-])cc1OC
0.73,89*,-2,4,4.3,4.9,6.7,i,-1,O=C(Cc1ccc(F)cc1)Nc1ccccc1N1CCCC1
0.73,-3,26,22,3.0,9.3,-5.3,i,2,O=C(Nc1ccncc1NC(=O)c1cccc([N+](=O)[O-])c1)c1cccc([N+](=O)[O-])c1
0.68,-3,x,x,x,1.6,0.2,x,-5,O=C(CN(Cc1ccco1)C(=O)Cn1nnc(-c2ccc(F)cc2)n1)NC1CCCC1
0.71,x,x,x,x,0.4,4.0,x,-9,COc1ccc(NC(=O)CC2(Cc3ccccc3)CCOC(C)(C)C2)cc1 (stereo not drawn)
0.65,-5,x,x,x,-0.3,0.6,x,2,COc1ccc(C2=NCCc3cc(OC)c(OC)cc32)cc1OC
0.71,-1,x,x,x,-19,1.2,x,-3,Cc1oc(C(=O)O)cc1COc1ccc2c(C)cc(=O)oc2c1
0.73,15,17,13,2.0,-2.8,-1.3,x,1,COC(=O)CC1=C(C(=O)OC)C(c2ccncc2)C(C#N)=C(N)O1 (stereo not drawn)
0.7,15,9,6,1.3,2.1,-5.7,i,5,Cc1cccc(N2CC(C(=O)Nc3ccc(S(=O)(=O)NCC4CCCO4)cc3)CC2=O)c1C (stereo not drawn)
0.61,1,-4,-10,4.9,0.3,0.7,i,28,CCc1ccccc1NC(=O)CN1CCN(C(=O)CCC(=O)N2CCC(c3ccccc3)=N2)CC1
0.74,-11,-2,13,-2.1,-63,4.6,i,9,COc1ccc(C(=O)Nc2ccc3oc(-c4cccc(F)c4)nc3c2)cc1OC
0.61,-5,3,9,0.1,-3.0,-1.9,i,11,CC(OC(=O)CCC(=O)c1ccccc1)C(=O)Nc1ccc(F)cc1 (stereo not drawn)
0.65,-6,-5,-14,-7.6,-1.7,-1.7,i,4,Cc1cc(C(=O)NCc2cccs2)cs1
0.69,-4,18,14,-0.9,3.6,0.9,i,-4,O=C(CNC(=O)[C@@H]1Cc2ccccc2CN1)NC1CCCC1
0.67,-8,11,7,0.5,-0.2,-6.4,i,4,CCC(C)NC(=O)C1CCN(C(=O)N(C)C)CC1 (stereo not drawn)
x,6,1,5,-2.8,x,2.1,i,9,CCN(CC)Cc1c(C(=O)N/N=C/c2c(Cl)cccc2Cl)nnn1-c1nonc1N
0.63,12,-9,0,-2.6,4.2,0.0,i,-17,CCOc1ccc(/C=C(\C#N)C(=O)NC2CC2)c(OCC)c1
0.71,4,9,10,-0.3,0.5,1.5,i,9,COc1cc(C(=O)NNC(=O)c2ccc(NC(C)=O)cc2)cc(OC)c1OC
0.67,4,-31,-30,-4.0,2.0,1.2,i,0,NNC(=O)c1[nH]c2ccc(Cl)cc2c1-c1ccccc1
0.66,x,6,6,0.4,1.6,-1.1,i,5,CC(C)[C@H](NC(=O)c1ccccc1)C(=O)Nc1ccc2c(c1)OCO2
0.67,31,x,x,x,7.5,-2.6,x,57*,Cc1ccc(Oc2c(C(N)=O)cc([N+](=O)[O-])cc2[N+](=O)[O-])cc1
0.7,-24,x,x,x,5.5,-2.5,i,-7,NNC(=O)CSCc1nc(-c2ccccc2)cs1
0.69,x,1,3,1.9,2.0,-2.6,i,3,CC=CC1OCC(CC)C(CCC)O1 (stereo not drawn)
0.67,-4,x,x,x,0.0,0.5,x,-7,O=C(C1CCCO1)N1CCN(C(=S)Nc2ccccc2)CC1 (stereo not drawn)
0.66,x,10,6,3.9,4.1,0.2,i,-5,O=C(O)CC(NCc1ccco1)C(=O)Nc1cccc(O)c1 (stereo not drawn)
0.68,x,0,3,-0.5,-8.3,-2.0,i,1,Cc1ccc(C)c2c1c1ccccc1n2C
0.68,x,-61,-82,-22,7.9,1.4,x,56*,Cc1ccc(-n2ncc(C(=O)Nc3cc(Cl)cc(Cl)c3)c2C2CCNCC2)cc1C

Gathered by group: those above containing a thiophene ring, fused or not (3)
Ecoli growth,ALR H2O2 inh,rRNA inh HTS,rRNA inh HTS OD600,rRNA inh HTS RFP,UCH37 inh,HNF4A DNA FP,FGF22 binding,Beta2AR agonist,compound
0.73,0,x,x,x,1.3,0.7,x,0,CC1(C)Cc2c(sc3nc(-c4ccccc4)n(N)c(=O)c23)CO1
0.67,7,5,4,-2.5,2.8,-0.7,i,-20,CCCn1c(SCC(=O)NC(C)C)nc2sc3c(c2c1=O)CCC3
0.65,-6,-5,-14,-7.6,-1.7,-1.7,i,4,Cc1cc(C(=O)NCc2cccs2)cs1

Next part:
Ecoli growth,ALR H2O2 inh,rRNA inh HTS,rRNA inh HTS OD600,rRNA inh HTS RFP,UCH37 inh,HNF4A DNA FP,FGF22 binding,Beta2AR agonist,compound
0.64,-3,x,x,x,4.9,-4.2,x,2,CC(C)(C)c1cc[n+](/C(C(=S)NC2CC2)=C(/[O-])c2ccc(Cl)s2)cc1
0.66,x,9,11,4.8,7.1,4.5,i,-4,CC(=O)Nc1ccc(C=NNc2ccc([N+](=O)[O-])cn2)cc1
0.67,-5,-7,1,0.8,0.9,-1.7,i,-7,COc1ccc(C(=O)C2CCCN(C(=O)CSC)C2)cc1OC (stereo not drawn)
0.65,2,6,14,0.8,4.4,1.1,i,7,CCNC(=O)OCc1cn(-c2ccc(Cl)cc2)nn1
0.69,-5,x,x,x,3.8,2.8,x,2,Cc1cccc(C(=O)NCCc2n[nH]c(=S)n2C)c1
0.79,1,x,x,x,-0.5,-8.4,x,10,COCCCNC(=O)Cn1nc(-c2ccccc2OC)ccc1=O
0.68,-15,x,x,x,1.3,1.2,x,-4,CCNC(=O)C1CCCN1S(=O)(=O)c1ccc(OC)cc1 (stereo not drawn)
0.72,3,x,x,x,0.8,4.0,x,8,CCOc1ccc(C(C)=O)cc1N1C(=O)C2C3C=CC(O3)C2C1=O (stereo not drawn)
x,x,-19,-36,20,x,3.6,i,x,CCCCc1c(-c2cccc(Cl)c2)ncn1CCc1ccccc1OC
0.69,6,-5,-21,16,6.2,12,i,21,COc1cc(/C=C/C(=O)c2ccc3c(c2)OCO3)cc(Cl)c1O

One compound at a time, from the list above. Screens in order: Ecoli growth, ALR H2O2 inh, rRNA inh HTS, rRNA inh HTS OD600, rRNA inh HTS RFP, UCH37 inh, HNF4A DNA FP, FGF22 binding, Beta2AR agonist
CCCCc1c(-c2cccc(Cl)c2)ncn1CCc1ccccc1OC in the list: x, x, -19, -36, 20, x, 3.6, i, x
CCNC(=O)C1CCCN1S(=O)(=O)c1ccc(OC)cc1 (stereo not drawn) in the list: 0.68, -15, x, x, x, 1.3, 1.2, x, -4

Assay outcomes (PubChem BioAssay)

An excerpt. The share of hits here may be higher or lower than overall.
